Rango complex inh = qHTS Assay for Inhibitors of Rango (Ran-regulated importin-beta cargo) - Importin beta complex formation. Rango CFP/YFP FRET sensor + importin beta, 45 min. Importin subunit beta-1 (Homo sapiens), Q14974. Potency, µM (titrated, usually from 92.2 µM), for inactives: at the top dose inhibition of complex formation. AID 540263, 2011. hit rate 0.031% among 340,000; active = rising FRET ratio curve, often small or poorly fitted; inconclusive = mostly compound fluorescence or quenching in the first reads; inactive = flat curves in all reads;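 note: potency is the fitted concentration of half-maximal effect; 0% = DMSO wells and 100% = buffer wells lacking importin beta; nearly all actives have a fitted effect of over 15% in size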
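Inhibition scored from the CFP 486 nm/YFP 530 nm FRET ratio 45 min after adding 0.125 microM importin beta to 50 nM Rango biosensor preincubated 5 min with compound (room temperature, PBS with DTT, Tween-20, BSA). No-importin wells as positive control.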
Rango release inh = qHTS Assay for Inhibitors of RanGTP induced Rango (Ran-regulated importin-beta cargo) - Importin beta complex dissociation | hit rate 0.071% among 340,000 | Biochemical FRET Rango-importin beta, RanGTP-induced dissociation | Potency, µM (titrated, usually from 46.1 µM), for inactives: at the top dose activity change, negative = inhibition; active means falling FRET ratio curve, often poorly fitted, with flat reads before Ran was added; inconclusive means other falling curves, or compound fluorescence or quenching; inactive means flat or rising ratio curve;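 note: potency is the fitted concentration of half-maximal effect; % of control where 0% means no effect; nearly all actives have a fitted effect of over 45% in size; -100% = wells without RanGTP and RCC1; the record marks most hits as doubtful in a second field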
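Rango/importin beta premix (0.1/0.25 uM final), PBS + 1 mM DTT + 0.02% Tween-20 + 0.1% BSA; cpd 5 min RT; FRET pre-read; + RanGTP-RCC1 (0.6 uM Ran, 2 mM GTP, 0.2 uM RCC1); 45 min RT; FRET post-read, ex 430, em 486/530 nm.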
miR-21 FLuc = qHTS Assay for Modulators of miRNAs and/orActivators of miR-21; 340,000 tested, under 10 active; HeLa miR-21 FLuc reporter, luciferase, 48 h; Potency, µM (titrated, usually from 38.3 µM), for the others: top-dose reporter change, positive = more light; active = well fitted rising curve with a large enough effect; inconclusive = small, poorly fitted or top-dose-only effect; inactive = no such curve, though single readings can be large or run the other way;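 note: % of control where 0% means no effect; miR-21 action dims this reporter so a rising signal means less miR-21 action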
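HeLa cells endogenously expressing miR-21, stably carrying CMV-driven firefly luciferase with a downstream miR-21 binding site, 2000 cells/well. Titrations up to approximately 40 uM, 48 hours; luciferase luminescence read.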
GLA inh pH 4.5 = qHTS Assay for Inhibitors of Human alpha-Galactosidase at pH 4.5; 230,000 tested, under 10 active; activity change, negative = inhibition, % at 105 µM; purified enzyme, 4-MU-alpha-Gal fluorescence, pH 4.5; Alpha-galactosidase A (Homo sapiens), P06280; inconclusive = small, poorly fitted or top-dose-only inhibition, or a rising curve; inactive = flat fitted curve, though single readings scatter; no compound was filed as active;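 note: 0% = full activity with enzyme and -100% = basal without enzyme; dose as in the result columns while the protocol names 77 µM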
Target sequence (P06280 whole entry, looked up): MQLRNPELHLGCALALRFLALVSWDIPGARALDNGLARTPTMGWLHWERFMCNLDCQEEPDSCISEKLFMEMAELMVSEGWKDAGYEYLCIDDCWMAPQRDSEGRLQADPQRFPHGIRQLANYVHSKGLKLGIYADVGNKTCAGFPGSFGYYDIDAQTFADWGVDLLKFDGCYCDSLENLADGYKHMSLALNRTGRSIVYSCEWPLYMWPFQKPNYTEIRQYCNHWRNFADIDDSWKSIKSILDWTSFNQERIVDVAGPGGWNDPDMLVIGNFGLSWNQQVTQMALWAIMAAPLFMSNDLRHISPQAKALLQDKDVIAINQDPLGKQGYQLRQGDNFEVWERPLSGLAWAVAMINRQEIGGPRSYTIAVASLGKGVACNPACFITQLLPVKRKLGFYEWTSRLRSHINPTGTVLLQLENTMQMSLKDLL
The depositor's hits bear a star; ? = inconclusive; . = no result given; & = joins results of further samples. Some of the compounds tested; the hit share may differ from the screen's.

| # | smiles | Rango complex inh | Rango release inh | miR-21 FLuc | GLA inh pH 4.5 |
| --- | --- | --- | --- | --- | --- |
| 1 | COc1ccc(/C=C(\C#N)C(=O)NCC(c2ccc(F)cc2)N2CCOCC2)cc1 (centres undefined) | ? | -5% | 2% | 0 |
| 2 | CN(C)CC(C)(C)CNC(=S)Nc1cc(S(=O)(=O)N2CCOCC2)ccc1Cl | -0.2% | -9% | -3% | -1 |
| 3 | CCOC(=O)c1c(S(=O)(=O)N2CCCC(C)C2)c(C)n(C)c1C (centres undefined) | -0.3% | 0% | -9% | . |
| 4 | CCOc1ccc(C(=O)NC(=S)NCc2cccnc2)cc1[N+](=O)[O-] | -0.8% | -14% | -7% | 1 |
| 5 | CC(=O)n1c(=O)c2ccccc2c(=O)n1-c1ccccc1 | -1.3% | -5% | -1% | . |
| 6 | Cn1cc(/C=N\O)nc2c(=O)n(-c3ccccc3)c(=O)nc1-2 | ? | ? | -2% | 10 |
| 7 | CC(NC(=O)CC1Nc2ccccc2NC1=O)c1ccccc1 (centres undefined) | ? | -13% | -7% | 2 |
| 8 | Cc1ccnc(NC(=O)c2ccc3c(c2)S(=O)(=O)c2ccccc2C3=O)c1 | -0.5% | -1% | -2% | 3 |
| 9 | COCCOc1cc(-n2ccnc2SC)c(Cl)cc1Cl | -3.5% | -29% | 0% | -8 |
| 10 | Cc1ccc(-c2cc(C(=O)N3CCCc4ccccc43)c3ccccc3n2)cc1 | -1.1% | 11% | -8% | -1 |
| 11 | NC1=NC(=O)/C(=C/c2ccccc2OCC(=O)Nc2ccc(F)cc2)S1 | 0.1% | -4% | . | . |
| 12 | CCOc1ccccc1NC(=O)COC(=O)CNS(=O)(=O)c1ccc(C)cc1 | -1.5% | 35% | -8% | -1 |

Quoted at random: 5 compounds from above, in no set order.
| # | smiles | Rango complex inh | Rango release inh | miR-21 FLuc | GLA inh pH 4.5 |
| --- | --- | --- | --- | --- | --- |
| 2 | CN(C)CC(C)(C)CNC(=S)Nc1cc(S(=O)(=O)N2CCOCC2)ccc1Cl | -0.2% | -9% | -3% | -1 |
| 5 | CC(=O)n1c(=O)c2ccccc2c(=O)n1-c1ccccc1 | -1.3% | -5% | -1% | . |
| 6 | Cn1cc(/C=N\O)nc2c(=O)n(-c3ccccc3)c(=O)nc1-2 | ? | ? | -2% | 10 |
| 9 | COCCOc1cc(-n2ccnc2SC)c(Cl)cc1Cl | -3.5% | -29% | 0% | -8 |
| 1 | COc1ccc(/C=C(\C#N)C(=O)NCC(c2ccc(F)cc2)N2CCOCC2)cc1 (centres undefined) | ? | -5% | 2% | 0 |

Continued:
| # | smiles | Rango complex inh | Rango release inh | miR-21 FLuc | GLA inh pH 4.5 |
| --- | --- | --- | --- | --- | --- |
| 13 | CCc1ccccc1NC(=O)C1CCCN1S(=O)(=O)c1ccc(-c2ccc(=O)[nH]n2)s1 (centres undefined) | -2.4% | -4% | -3% | . |
| 14 | COc1ccccc1NC(=O)c1ccc(NC(=O)CSc2ncccn2)cc1 | -4.2% | -9% | -21% | 12 |
| 15 | COc1ccc2c(c1OC)C(=O)N(c1ccc(O)cc1)C2=O | ? | -14% | 4% | 1 |
| 16 | C[C@@H]1ON(C)[C@H]2C[C@H]3c4cc(-c5cccc(F)c5)ccc4CCN3C(=O)[C@@H]12 | -1.0% | 12% | . | . |
| 17 | CN1CCN(CC(=O)N2c3ccccc3C(C)(c3ccc(Cl)cc3)CC2(C)C)CC1 (centres undefined) | 5.7% | 0% | 16% | -21 |
| 18 | Cc1ccc(SCCNC(=O)c2ccc(CN3CCOCC3)cc2)cc1 | -0.1% | -4% | 7% | 0 |
| 19 | O=Cc1ccc(OCc2cccc(C(F)(F)F)c2)cc1O | -4.5% | -31% | -1% | -1 |
| 20 | COc1ccc(CN2CCN(C(=O)c3ccco3)CC2)c(OC)c1OC | 3.9% | 4% | . | . |
| 21 | O=C(CCNS(=O)(=O)c1cccs1)N1CCCCCC1 | -1.9% | 3% | -39% | 7 |
| 22 | COc1ccc(NC(=O)COc2ccc(C)cc2)c([N+](=O)[O-])c1 | 3.2% | -3% | -20% | 0 |
| 23 | CCN(CC(=O)NCc1ccc(Cl)cc1)C(=O)CSc1ccccc1 | -3.2% | 0% | . | . |
| 24 | COc1cc2[nH]c(C(=O)NCc3ccccc3)cc2c(OC)c1OC | -3.5% | -16% | 4% | . |
| 25 | O=C(O)CNCC1COc2ccccc2O1 (centres undefined) | 0.5% | 0% | -2% | -1 |
| 26 | O=C(NCCN1CCOCC1)c1cccc(S(=O)(=O)N2CCCCC2)c1 | -2.4% | 3% | . | . |
| 27 | C=CCn1c(=S)sc2c(=O)[nH]c(C)nc21 | 0.4% | 7% | -1% | 2 |
| 28 | CC(C)(C)NC(=O)Cn1c(=O)n(CC(=O)NC(C)(C)C)c2ccccc21 | -1.9% | 11% | 1% | 1 |
| 29 | O=C(CSc1nc(=O)[nH]c2c1CCCC2)Nc1cc(C(F)(F)F)cc(C(F)(F)F)c1 | ? | 14% | . | . |
| 30 | CC(=O)N1CCCc2cc(S(=O)(=O)N3CCCC(C(=O)Nc4cccc(C)c4)C3)ccc21 (centres undefined) | -2.3% | -4% | -1% | . |
| 31 | COc1ccccc1NC(=O)c1ccc(C(=O)Nc2ccccc2OC)nc1 | -1.6% | -2% | 5% | . |
| 32 | O=C1OC(c2ccccc2)=C/C1=C/N1CCOCC1 | 1.8% | 0% | -42% | -15 |
| 33 | Cc1cccnc1NC(=O)C(c1ccccc1)c1ccccc1 | 1.4% | -14% | 12% | . |
| 34 | CC(C)Nc1c([N+](=O)[O-])c(=O)oc2ccccc12 | -3.7% | -6% | 0% | -5 |
| 35 | CC(c1ccccc1)C(Cc1nc2ccccc2[nH]1)c1nc2ccccc2[nH]1 (centres undefined) | . | . | 23% | -8 |
| 36 | C/C(=N\NC(=O)C1CC1c1ccccc1)c1cccc([N+](=O)[O-])c1 (centres undefined) | -2.3% | -1% | -15% | 12 |
| 37 | O=C1C2CCCN2C(=S)N1C1CCCCC1 (centres undefined) | -0.9% | 13% | 2% | . |
| 38 | CC(C)OC(=O)CSc1nnnn1-c1ccc2c(c1)OCCO2 | 2.7% | ? | -37% | 1 |
| 39 | CCC(=O)Nc1nonc1-c1nc2ccccc2n1Cc1cccc2ccccc12 | -1.5% | -1% | 20% | -8 |
| 40 | S=C(NCCCN1CCOCC1)N1CCN(c2nc(-c3ccccc3)cs2)CC1 | 0.4% | 44% | 22% | 2 |
| 41 | CC1CC(C)CN(C(=O)COC(=O)c2ccc3ccccc3n2)C1 (centres undefined) | -2.5% | 1% | . | . |
| 42 | Cc1cc(C)n(-c2nc3ccccc3nc2Nc2ccc3c(c2)OCO3)n1 | ? | -15% | -7% | -4 |
| 43 | COc1ccc(CCNC(=O)C2(C)CCC(=O)N2Cc2ccc(C)cc2)cc1OC (centres undefined) | -2.0% | 20% | -1% | . |
| 44 | CN1CCN(c2ccc(CNC(=O)c3cc4ccccc4o3)cc2)CC1 | -2.1% | 0% | -23% | -3 |
| 45 | CSc1ncccc1C(=O)Nc1ccncc1 | 3.9% | 11% | -4% | . |
| 46 | Cc1ccc(C)n1Cc1ccccc1Cl | 0.3% | -15% | 0% | 5 |
| 47 | O=C(O)c1ccccc1C(=O)c1cccc2c(Br)cccc12 | 0.2% | 0% | . | . |
| 48 | COc1ccc(-c2cc3c(=O)n(CC(=O)NCc4cccnc4)ncn3n2)cc1 | 2.2% | -17% | -36% | . |
| 49 | Cc1cc(C)cc(NC(=O)C2(c3cccs3)CCOCC2)c1 | 2.6% | -1% | 3%&3% | -1 |
| 50 | NC(=O)c1ccccc1NC(=O)Cc1cccs1 | -3.6% | -1% | -12% | . |
| 51 | CCOC(=O)Cn1c(=O)oc2cc(S(=O)(=O)NCCc3ccc(OCC)c(OCC)c3)ccc21 | -3.5% | 17% | 0% | 2 |
| 52 | C/C(N)=C(/C#N)C(=O)CSc1nnc(COc2cc(C)ccc2C)o1 | -0.1% | -16% | -3% | 13 |
| 53 | Cc1cc(C)c(S(=O)(=O)c2ccccc2)c(OC(=O)c2c(Cl)cccc2Cl)n1 | ? | -3% | 3% | -2 |
| 54 | CC(=O)Nc1ccccc1C(=O)N1CC2(C)CC1CC(C)(C)C2 (centres undefined) | -0.2% | -5% | -5% | 1 |
| 55 | c1ccc(Sc2ccccc2CN2CCCC2)cc1 | 2.8% | 6% | . | . |
| 56 | Cc1nc([N+](=O)[O-])nn1C12CC3CC(CC(Br)(C3)C1)C2 | -4.3% | 3% | -10% | -5 |
| 57 | COc1ccc(-c2nn(C)c(=O)c3ccccc23)cc1NC(=O)COc1ccc(C)cc1 | -4.1% | -6% | -8% | -11 |
| 58 | CCOC(=O)c1ccc(NC(=S)N2CCCC2)cc1 | -6.3% | -16% | -12% | -1 |
| 59 | Cc1ccc(CCN2CC(C(=O)NCc3cccnc3)CC2=O)cc1 (centres undefined) | 0.6% | 0% | . | . |
| 60 | CCOc1ccc(CCNC(=O)CCCn2c(=O)c3cccn3c3cccnc32)cc1OCC | -0.8% | 1% | 2%&-7% | . |
| 61 | O=C(CN1C(=O)c2ccccc2C1=O)Nc1nccs1 | -0.5% | ? | -2% | -5 |
| 62 | O=S(=O)(c1cccc2ccccc12)N1CCC2CC1c1cc(-c3ccc(F)cc3)ccc12 (centres undefined) | 0.7% | 3% | . | . |
| 63 | CCCCn1nc(NC(=O)COC)c2cc3ccc(C)cc3nc21 | -0.4% | ? | 0% | . |
| 64 | NC(=O)C1CCN(C(=O)CSc2ccsc2[N+](=O)[O-])CC1 | -2.7% | 16% | 0% | 1 |
| 65 | CC(C(=O)N1c2ccc(F)cc2CCC1C)N1C(=O)c2ccccc2C1=O (centres undefined) | ? | -2% | -6% | -1 |
| 66 | CC1CN(C(=O)COC(=O)c2ccc(Cl)c(N)c2)CC(C)O1 (centres undefined) | -3.4% | -12% | 1% | . |
| 67 | COc1ccc(N2CCN(C(=O)CN=C3NS(=O)(=O)C(c4ccc(C)cc4)=C3C)CC2)cc1 | 2.6% | -9% | 12% | -7 |
| 68 | COc1ccc2oc(C(=O)OCC(=O)Nc3ccc(NC(C)=O)cc3)c(C)c2c1 | -0.9% | 14% | . | . |
| 69 | COc1ccc(NC(=O)Cc2c(Cl)cccc2Cl)cn1 | -0.1% | 13% | 0% | -1 |
| 70 | COc1ccc(C(=O)Nc2ccc(S(=O)(=O)Nc3onc(C)c3C)cc2)cc1 | 0.1% | -8% | -6% | 3 |
| 71 | Cc1cccc(C(=O)N2CCCC(c3nc(-c4ccc(C)o4)no3)C2)c1 (centres undefined) | -0.2% | -12% | -42% | . |
| 72 | O=C(NCc1ccccc1)c1cccc(OCC(=O)N2CCN(C(=O)c3ccco3)CC2)c1 | 0.6% | 19% | -3% | -5 |

Other records
| # | smiles | Rango complex inh | Rango release inh | miR-21 FLuc | GLA inh pH 4.5 |
| --- | --- | --- | --- | --- | --- |
| 73 | CC(C)(C)c1n[nH]c(=S)n(N)c1=O | -0.4% | 2% | -3% | -2 |
| 74 | S=C(NCCCN1CCOCC1)N1CCN(c2ccccc2)CC1 | 0.2% | -10% | 3% | . |
| 75 | CC1CCN(CCCNC(=O)CN2C(=O)CSc3ccc(S(=O)(=O)N4CCOCC4)cc32)CC1 | 0.5% | 16% | 0%&0% | . |
| 76 | COc1ccc2c(CC(=O)N3CCN(S(=O)(=O)c4cccs4)CC3)coc2c1 | 5.3% | -12% | -5% | -30 |
| 77 | CC(CCc1ccccc1)NC(=O)c1cccs1 (centres undefined) | 5.0% | 1% | -2% | 15 |
| 78 | Cn1ncc2c(Nc3cccc(Cl)c3)nc(Nc3cccc(Cl)c3)nc21 | -0.6% | 6% | 22% | -2 |
| 79 | C=CCn1c(CNC(=O)c2ccco2)nnc1SCC(=O)N1c2ccccc2Sc2ccccc21 | -0.9% | 22% | 0% | 1 |
| 80 | Cc1cccc2cc(CN(C(=O)c3cccc([N+](=O)[O-])c3)C(C)C)c(=O)[nH]c12 | 3.5% | ? | 2% | -10 |
| 81 | Cc1cc(C)c(NC(=O)/C=C\C(=O)O)c(Cl)c1 | 1.7% | 1% | -4% | -2 |

High-throughput results from PubChem BioAssay.
